# Compound activity: PubChem, National Center for Advancing Translational Sciences (NCATS)
# BLM inh: blocks DNA unwinding by human BLM helicase | P54132 | recombinant BLM DNA unwinding, fluorescence dequenching | Potency, µM (titrated, usually from 56.1 µM), for inactives: top-dose activity change, negative = inhibition, actives largely listed as inhibitors | 0.2% of 350,000 active | AID 2528;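 further: potency means the concentration at half of the fitted maximal effect; plate controls were vehicle for no effect and no enzyme for full effect; nearly all actives have a fitted effect of over 35% in size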
# Apoferritin bind: binds horse apoferritin like a general anesthetic; P02791; apoferritin/1-aminoanthracene competitive binding, fluorescence; Potency, µM (series often up to 77.5 µM), without a hit: at the highest dose activity change, negative = displacement, most hits filed as inhibitors; 0.074% of 350,000 active; AID 485281; further: potency means the concentration at half of the fitted maximal effect; on the % scale 0 is the no-effect control and ±100 the full control effect; nearly all actives have a fitted effect of over 20% in size
# Target sequence (P02791 2-175 limits assumed): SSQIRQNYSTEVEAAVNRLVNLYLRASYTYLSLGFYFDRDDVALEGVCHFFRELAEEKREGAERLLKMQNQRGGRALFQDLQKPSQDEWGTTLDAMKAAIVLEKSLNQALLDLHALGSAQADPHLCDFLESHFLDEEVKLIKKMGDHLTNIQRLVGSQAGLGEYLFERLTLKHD
#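 Read-out: endpoint 1-AMA fluorescence, excitation 380 nm and emission 535 nm, after compounds sit 10 min at room temperature with 10 uM horse-spleen apoferritin in 50% saturated 1-AMA/PBS. Values come from four-parameter Hill fits.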
# POLI inh: blocks human DNA polymerase iota activity. Pol iota fluorescent replication assay, 10 min. Potency, µM (titrated, usually from 115 µM), without a hit: at the highest dose activity, negative = inhibition, actives largely listed as inhibitors. 1% of 390,000 active. AID 588590; further: potency means the concentration at half of the fitted maximal effect
#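 Pol iota at 10 nM preincubated 15 min with compounds at room temperature; reaction started with fluorescent substrate, 50 nM final. Fluorescence read kinetically at 0 and 10 min; buffer-only wells as negative control.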
# Tb PGK inh: blocks T. brucei phosphoglycerate kinase; P07378; PGK/GAPDH coupled, Kinase-Glo luminescence, 60 min; Potency, µM (top dose mostly 57.5 µM), inactives show top-dose activity change, negative = inhibition, most hits filed as inhibitors; 0.043% of 380,000 active; AID 602233; further: potency means the concentration at half of the fitted maximal effect; on the % scale 0 is the no-effect control and ±100 the full control effect; nearly all actives have a fitted effect of over 60% in size
#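 Luminescent ATP detection (Kinase-Glo Plus) follows a 60-minute room-temperature incubation, with wells lacking PGK as controls. Buffer: 100 mM TEA (pH 7.6), 5 mM MgCl2, 0.01% Tween-20. Coupling enzyme GAPDH (100 nM final) supplies unstable 1,3-BPG in-well.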
# Pol kappa inh: DNA polymerase kappa (human) inhibition | Q9UBT6 | purified Pol kappa, fluorescent DNA synthesis assay, 10 min | Potency, µM (doses to about 107 µM), without a hit: at the highest dose activity, negative = inhibition, hits mostly inhibitors | 0.53% of 400,000 active | AID 588579; further: potency means the concentration at half of the fitted maximal effect; on the % scale 0 is the no-effect control and ±100 the full control effect
# Target sequence (Q9UBT6 whole entry, looked up): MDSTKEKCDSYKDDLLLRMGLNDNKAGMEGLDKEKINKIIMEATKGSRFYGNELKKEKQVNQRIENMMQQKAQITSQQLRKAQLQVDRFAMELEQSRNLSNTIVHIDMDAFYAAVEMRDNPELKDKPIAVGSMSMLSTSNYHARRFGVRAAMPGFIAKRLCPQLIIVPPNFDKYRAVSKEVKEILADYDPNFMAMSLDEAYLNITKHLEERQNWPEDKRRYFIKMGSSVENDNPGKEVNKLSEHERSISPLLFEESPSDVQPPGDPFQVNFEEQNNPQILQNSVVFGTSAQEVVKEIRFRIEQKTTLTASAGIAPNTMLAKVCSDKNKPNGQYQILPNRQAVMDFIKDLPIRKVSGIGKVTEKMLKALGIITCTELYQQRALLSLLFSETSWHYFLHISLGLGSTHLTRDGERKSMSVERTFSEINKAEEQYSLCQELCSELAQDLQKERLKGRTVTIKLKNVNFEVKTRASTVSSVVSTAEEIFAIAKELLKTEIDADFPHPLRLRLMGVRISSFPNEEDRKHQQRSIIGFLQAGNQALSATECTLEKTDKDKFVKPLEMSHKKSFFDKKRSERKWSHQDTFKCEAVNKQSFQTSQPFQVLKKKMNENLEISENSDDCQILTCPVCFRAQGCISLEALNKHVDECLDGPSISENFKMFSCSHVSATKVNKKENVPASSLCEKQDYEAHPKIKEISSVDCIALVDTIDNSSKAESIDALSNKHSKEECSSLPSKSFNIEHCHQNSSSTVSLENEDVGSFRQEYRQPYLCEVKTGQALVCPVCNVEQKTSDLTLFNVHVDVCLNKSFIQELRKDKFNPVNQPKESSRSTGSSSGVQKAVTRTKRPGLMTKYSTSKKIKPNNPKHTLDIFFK
#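 Enzyme at 10 nM met test compounds for 15 min at room temperature. Substrate addition (50 nM final) began the reaction, which was monitored by fluorescence at 0 and 10 min.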
# RXFP1 antag: blocks the human relaxin receptor RXFP1. 0.59% of 350,000 active. HEK293-RXFP1, relaxin-stimulated cAMP HTRF, 30 min; active compounds read low. activity change, negative = inhibition, % at 57.5 µM. Q9HBX9;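 active means activity change of -60% or lower, but not beyond a set lower limit; inconclusive means change between -60% and -40%, or beyond the set limit; inactive means change above -40%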; further: on the % scale 0 is the no-effect control and ±100 the full control effect
# Active calls of the source: *; i = inactive; u = inconclusive; x = not tested or not shown; & = joins results of further samples; ! = not confirmed by another sample; [ ] = dose if it differs, or a comment. Unless noted, the call rests on the fitted dose curve; in most records, active means well fitted curve in the direction sought with a large enough effect; inconclusive means small, poorly fitted or top-dose-only effect, or another doubt; inactive means no such curve, though single readings can be large; an effect the other way counts as inactive or inconclusive. Not all compounds are listed; the hit share may differ from the screen's.
BLM inh,Apoferritin bind,POLI inh,Tb PGK inh,Pol kappa inh,RXFP1 antag,mol
-5.0%,6.0%,54.0%[activator],3.7%,-4.7%,-18.4,O=c1c(NCCc2ccccc2)c(-c2ccccc2)c1=O
-14.0%,2.7%,-3.6%,1.5%,2.7%,x,CC(OC(=O)c1ccccc1Nc1ccc(SC(F)F)cc1)C(N)=O (stereo not given)
-5.7%,-8.6%,16.1%,-9.7%,-11.4%,-1.9,Brc1ccccc1-c1nnc(SCc2nc3ccccc3s2)o1
-3.4%,-6.5%,-23.1%,-6.2%,-10.2%,-1.3,Cc1ccc(NC2SC(=O)N(CC(=O)O)C2=O)cc1 (stereo not given)
2.2%,1.4%,x,x,-9.5%[60.1 µM],x,OCC(O)C(O)[C@H](O[C@H]1OC(CO)C(O)C(O)C1O)[C@H](O)CO (stereo not given in full)
x,x,-1.4%,-2.1%,-1.0%,-5.8,CC(NS(=O)(=O)c1ccc(Cl)cc1)C(=O)OCC(=O)c1ccc[nH]1 (stereo not given)
-0.7%,-12.2%,19.4%,-4.8%,-17.3%,-0.2,CC(C)NC(=O)CNc1ccc(C(F)(F)F)cc1[N+](=O)[O-]
-7.1%,-15.9%,13.4%,-5.7%,-11.6%,-23.6,COc1ccc(NC(=O)COC(=O)/C=C/c2cnc3ccccc3n2)cc1
-0.3%,-4.5%,7.9%,18.1%,-3.6%,x,COc1ccccc1CC(=O)Nc1ccc([N+](=O)[O-])cc1OC
-15.1%,-7.9%,89.1µM*,-15.0%,u,-0.1,O=C(N/N=C/c1ccoc1)c1cc(Br)ccc1O
-2.5%,-13.2%,u,i,-16.4%,8.3,COc1ccc(-c2cc3ccccc3oc2=O)cc1NC(=O)c1cccnc1
3.3%,7.8%,-14.0%,-2.3%,-6.1%,5.0,COC(=O)/C(NC(C)=O)=C(\C)c1ccc(Cl)cc1
-1.6%,-16.6%,14.6%,-9.3%,-2.2%[60.1 µM],0.3,C=CCSc1nnc2c(n1)[nH]c1c(C)cccc12
0.4%,-16.8%,21.7%,i,-3.5%,6.4,Cc1cc(=O)oc2cc(OCC3CC(c4ccccc4Cl)=NO3)ccc12 (stereo not given)
-7.3%,-10.5%,12.7%,-6.0%,-10.7%,-33.5,Cc1ccc(/C=N/Nc2nncc(-c3ccccc3)n2)o1
2.4%,-6.2%,-17.9%,-13.3%,2.0%,-5.9,COC(=O)c1ccccc1NC(=O)CCS(=O)(=O)c1cc2c(cc1C)NC(=O)CO2
-0.1%,1.2%,13.7%,i,8.4%,-6.3,O=S(=O)(Cc1cccc(C(F)(F)F)c1)c1ncn[nH]1
-9.6%,-9.0%,-7.0%,-14.7%,-8.0%,-0.2,COc1cccc(/C=N\Nc2nncc(-c3ccccc3)n2)c1
40.0%[activator],-15.5%,u,3.5%,-15.8%,-25.6,CN(C)CCCN(C(=O)/C=C/c1cccs1)c1nc2c(F)cccc2s1
-0.9%,-8.4%,-1.7%,-8.5%,7.8%,-5.4,O=C(NC1CCCCCC1)C1CCN(C(=O)c2ccc(Br)cc2)CC1
-2.2%,-0.1%,43.1%[activator],14.2%,-4.3%,-7.7,O=C(NC1CCC(O)CC1)c1cccnc1Sc1ccccc1Cl (stereo not given)
3.0%,0.6%,-11.2%,0.9%,-10.2%,-2.8,CC1=C(C(=O)Nc2ccccc2)C(c2cccnc2)n2ncnc2N1 (stereo not given)
-8.8%,u,-13.3%,i,9.5%,-15.5,COc1ccccc1/C=C1\C(=O)Nc2ccccc21
-1.7%,u,8.4%,-0.4%,-17.5%,-10.5,CCCCNC(=S)NC(=O)c1ccc(Cl)cc1Cl
-15.1%,-3.1%,10µM*,-27.4%,56.2µM*,11.7,N#C/C(=C\c1ccc(-c2ccc(C(=O)O)cc2)o1)C(=O)Nc1ccc(F)cc1
0.1%,-5.6%,5.1%,i,11.1%,4.6,Cc1cc(C)cc(N2CC(C)Cn3c2nc2c3c(=O)[nH]c(=O)n2C)c1 (stereo not given)
-10.2%,u,7.4%,14.6%,-4.5%,u,CC(C)Oc1ccc(C(=O)/C=C2/C(=O)Nc3ccccc32)cc1
1.4%,-1.1%,7.6%,-8.1%,3.5%,1.2,CNC(=O)CSc1nnc(-c2ccco2)n1-c1ccccc1
x,x,4.0%[58.9 µM],x,x,x,Cc1cn([C@H]2C[C@@H](N=[N+]=[N-])[C@@H](CO)O2)c(=O)[nH]c1=O
-3.4%,x,x,x,1.3%[60.1 µM],x,COc1ccccc1-c1cncnc1NCc1cnc(C)cn1
-3.2%,5.8%,3.7%,4.1%[11.5 µM],-6.9%,0.9,COc1cc2c(cc1OC)-c1cc(N3CCCCCC3)nc(=O)n1CC2
0.2%&-0.2%,-11.8%&0.4%,44.2%&66.2%[activator],i,7.7%&6.8%,-1.1,Cc1cccc(CCNC(=O)CCS(=O)(=O)c2cc3c(cc2C)NC(=O)CO3)c1
x,x,0.0%,-5.2%,-1.4%,0.6,CC(C)c1ccc(NC(=O)C2CCCCN2S(=O)(=O)c2ccccc2)cc1 (stereo not given)
-4.4%,x,x,x,5.5%[60.1 µM],x,COc1ccc(CNc2ncncc2-c2ccccc2C)c(OC)c1
-2.0%,-13.9%,-1.4%,0.5%,-10.3%,-0.7,C/C(=N\Nc1ccc(Cl)cc1)c1c(O)cc(C)oc1=O
-9.3%,x,x,x,1.4%[60.1 µM],x,FC(F)(F)c1ccccc1-c1cncnc1NCc1cccnc1

# Full records as entered above. Screens in order: BLM inh | Apoferritin bind | POLI inh | Tb PGK inh | Pol kappa inh | RXFP1 antag
# Cc1cn([C@H]2C[C@@H](N=[N+]=[N-])[C@@H](CO)O2)c(=O)[nH]c1=O across the screens: x | x | 4.0%[58.9 µM] | x | x | x
# FC(F)(F)c1ccccc1-c1cncnc1NCc1cccnc1 across the screens: -9.3% | x | x | x | 1.4%[60.1 µM] | x
# Cc1cccc(CCNC(=O)CCS(=O)(=O)c2cc3c(cc2C)NC(=O)CO3)c1 across the screens: 0.2%&-0.2% | -11.8%&0.4% | 44.2%&66.2%[activator] | i | 7.7%&6.8% | -1.1

# Next compounds
BLM inh,Apoferritin bind,POLI inh,Tb PGK inh,Pol kappa inh,RXFP1 antag,mol
-5.8%,-6.6%,3.6%,-2.9%,-14.3%,-3.0,Cc1cc(=O)oc2cc(Oc3ncccn3)ccc12
-11.5%,41.1%[activator],u,i,-3.4%,-0.7,COc1cccc(NC(=O)N2CCN(c3nc(-c4cccc(OC)c4)cs3)CC2)c1
-5.5%,-19.8%,35.2%[activator],-0.5%,4.7%,-10.7,COc1ccc(/C=C/C2=Nc3ccccc3NC(C)(C)C2)cc1OC
-4.7%,-12.3%,u,i,-0.7%,-3.2,CC(=O)N1CCc2cc(C(=O)CN3CCCCC3)ccc21
0.4%,x,x,x,1.3%[60.1 µM],x,Cc1noc(C)c1-c1nc(N(C)C)c2ccccc2n1
2.5%,u,-11.0%,4.3%,-18.2%,8.4,c1ccc(OCCCn2ccnc2)cc1
-3.4%,-18.5%,41.0%[activator],-8.9%,-4.3%,-0.5,CC1C(=O)N(Cc2ccc([N+](=O)[O-])cc2)c2ccccc2N1C(=O)C1CC1 (stereo not given)
x,x,25.5%,-2.4%,-1.2%,-24.8,O=C(NCC(c1ccco1)N1CCc2ccccc21)C(=O)Nc1ccccc1F (stereo not given)
-3.1%,-3.0%,-18.4%,-1.8%,8.6%,-1.5,COCCCn1c(C)nnc1SCC(=O)Nc1cccc(C)c1
-6.6%[120 µM],-8.0%[163 µM],x,x,-15.9%,x,Cc1ccc(C)c(-c2ccc(C(=O)O)o2)c1
-1.9%,-8.6%,-5.3%,-0.4%,-0.4%,-13.4,Cc1cc(=O)oc(C)c1C(=O)N[C@@H]1CCCCNC1=O
-2.5%&-4.5%,-6.1%,30.9%[activator],-1.4%,-8.1%[60.1 µM],16.9,Cc1cn([C@H]2C[C@H](N=[N+]=[N-])[C@@H](CO)O2)c(=O)[nH]c1=O
2.8%&2.0%,30.0%&-12.6%,29.4%&2.0%,-7.0%&3.7%,-2.7%,5.7,COc1ccccc1N1C(=O)N(CC(=O)C(C)(C)C)c2ccccc2S1(=O)=O
x,x,-10.1%,11.7%,-14.2%,4.8,COc1c(N2C[C@@H]3CCCN[C@@H]3C2)c(F)cc2c(=O)c(C(=O)O)cn(C3CC3)c12
0.9%,-12.9%,-21.4%,-5.8%,10.7%,-2.3,COc1ccc(C)cc1NC(=O)CCS(=O)(=O)c1cc2c(cc1Cl)NC(=O)CO2
-2.4%,-24.0%,-8.5%,-8.0%,-8.0%,-23.3,O=c1cc(O)nc(SCc2ccccc2Cl)[nH]1
-0.8%,x,x,x,7.7%[60.1 µM],x,COc1ccccc1CNc1ncncc1-c1ccccc1OC
-3.4%,-14.0%,7.5%,-6.8%,-8.3%,-10.0,NC(=O)C(c1ccc(Sc2ccccc2)nn1)c1ccc(Cl)cc1Cl (stereo not given)
-16.5%,-1.5%,u,-22.2%,u,8.5,Cn1c(SCC(=O)Nc2nncs2)nnc1C1CC1
-6.8%,-3.1%,u,-12.5%,-8.9%,-39.9,O=C(CCCl)Nc1nc2c(s1)CCc1ccccc1-2
-5.0%,1.8%,2.3%,5.9%,-8.2%,4.4,O=c1c(NCCc2ccc(Cl)cc2)c(-c2ccccc2)c1=O
3.5%,-5.7%,0.5%,-5.7%,-9.8%,-11.1,N#Cc1ccc(/C=N/NC(=O)c2ccccc2F)cc1
-0.2%,2.1%,-2.0%,0.3%,-7.4%,4.2,C=CCSc1n[nH]c(-c2cccs2)n1
-16.2%,-5.3%,79.4µM*,-15.9%,-34.3%,-5.1,O=C(/C=C/c1ccco1)OCc1nnc(-c2ccccc2)o1
3.0%,-15.2%,9.3%,-9.7%,-1.2%,1.4,c1ccc(-c2cnc(-c3cccnc3)o2)cc1
-1.7%,-5.5%,-0.4%,3.0%,-3.6%,7.4,O=C(OC1CCOC1=O)c1cccc(S(=O)(=O)Nc2cccc(Cl)c2)c1 (stereo not given)
-1.1%,x,x,x,-1.0%[60.1 µM],x,COc1ccccc1CNc1ncncc1-c1ccccc1Cl
-5.1%,-2.4%,u,i,-11.4%,-13.4,O=C(O)c1ccc(/C=C2\CCCc3c2nc2ccccc2c3C(=O)O)cc1
0.6%,-19.4%,14.6%,-3.2%,11.2µM*!,x,C[C@H](C(=O)O)c1cccc(C(=O)c2ccccc2)c1
-2.8%,u,6.8%,2.0%,-12.3%,11.0,O=C(N/N=C/c1ccccc1)c1sccc1OCc1ccc(F)cc1
-0.7%&1.3%,-6.2%,u,-1.9%&-2.1%,0.1%,x,Nc1ccn([C@H]2C[C@H](O)[C@@H](CO)O2)c(=O)n1
-4.4%,u,79.4µM*,-7.7%,-15.3%[60.1 µM],-6.5,CCCCN(CCCC)C(=O)c1c[nH]c2ccc(S(=O)(=O)Nc3cccc(Cl)c3C)cc2c1=O
x,x,-2.6%,-8.3%,16.7%,0.4,CCN(c1ccccc1)S(=O)(=O)c1ccc(Cl)c(NC(=O)CN2CCN(C)CC2)c1
-2.6%,2.1%,31.7%[activator],-3.6%,-5.1%,x,Nc1ccc(C(=O)OC2CCOC2=O)cc1[N+](=O)[O-] (stereo not given)
0.5%,-17.3%,69.7%[activator],-2.6%,-12.4%,-4.2,COc1cccc(/C=C/C(=O)OCC(=O)c2ccc3c(c2)NC(=O)CO3)c1OC
